# StopGo reporter: FMDV 2A StopGo reporter, luciferase signal | Potency, µM (top dose mostly 57.9 µM), for inactives: at the top dose signal change, negative = less light | AID 1159524 | 1.2% of 410,000 active | human cells with a luciferase reporter of 2A StopGo recoding; control for the full effect not named in the record; active = well fitted falling curve with a large enough effect; inconclusive = small, poorly fitted or top-dose-only effect; inactive = no such curve, though single readings can be large or run the other way; tested in HEK293T cells; also: % is scaled to controls: 0 for no effect and ±100 for the full control effect; nearly all actives have a fitted effect of over 45% in size; luciferase light after 4 h
# Marburg entry inh: Marburg virus entry inhibition; AID 540276; Marburg virus pseudotyped entry inhibition, cell reporter; control for the full effect not named in the record; about a third of the inactives were read at about 46 µM; 1.8% of 300,000 active; Potency, µM (titrated, usually from 37.8 µM), inactives show top-dose activity change, negative = inhibition, actives largely listed as inhibitors; active = well fitted inhibition curve with a large enough effect; inconclusive = small, poorly fitted or top-dose-only effect, or effect the other way; inactive = flat fitted curve, though single readings scatter; tested in HEK293 cells; about a fifth of its hits are not listed in these tables; also: % is scaled to controls: 0 for no effect and ±100 for the full control effect; luciferase read-out
# Cruzain noTriton: inhibitors of Trypanosoma cruzi cruzain without detergent; P25779; Potency, µM, without a hit: max response, negative = inhibition, actives largely listed as inhibitors; AID 1476; 2.3% of 200,000 active; purified cruzain, Z-FR-AMC fluorescence, no detergent; active = well fitted curve in the direction sought with a large enough effect; inconclusive = small, poorly fitted or top-dose-only effect, or another doubt; inactive = no such curve, though single readings can be large; an effect the other way counts as inactive or inconclusive;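 also: plate controls were enzyme without inhibitor for no effect and buffer without enzyme for full effect; nearly all actives have a fitted effect of over 40% in size; top concentration of the series not given in the record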
# Target sequence (P25779 123-467 limits assumed): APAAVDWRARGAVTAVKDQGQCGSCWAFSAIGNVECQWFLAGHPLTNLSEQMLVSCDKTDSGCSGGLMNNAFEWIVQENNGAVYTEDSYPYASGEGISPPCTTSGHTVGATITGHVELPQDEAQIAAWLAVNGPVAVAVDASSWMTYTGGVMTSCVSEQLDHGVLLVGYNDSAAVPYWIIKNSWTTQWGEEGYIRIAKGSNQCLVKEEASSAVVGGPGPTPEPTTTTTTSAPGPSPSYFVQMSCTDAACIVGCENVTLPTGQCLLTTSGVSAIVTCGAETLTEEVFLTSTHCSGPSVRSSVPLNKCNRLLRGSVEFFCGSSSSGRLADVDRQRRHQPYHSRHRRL
#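 Detergent-free condition (0.00005% Triton X-100) in acetate buffer pH 5.5 with DTT. 1.5 nM enzyme and compound were pre-mixed 15 min, then 2 uM Z-FR-AMC substrate added; reaction progress from fluorescence change between first and third reads (60 s).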
# SARS PLpro yeast: inhibitors of SARS-CoV papain-like protease in yeast; S. cerevisiae expressing SARS-CoV PLpro, growth rescue; control for the full effect not named in the record; Potency, µM (top dose mostly 32.9 µM), inactives show at the highest dose activity, positive = growth rescue; 0.19% of 330,000 active; AID 485353; also: 0% is about no effect; nearly all actives have a fitted effect of over 55% in size; growth read by luminescence after 48 h
# RE007 growth inh: less growth of the S. pombe RE007 Vpr strain. Potency, µM (titrated, usually from 92.2 µM), inactives show at the top dose activity change, negative = less growth. 0.21% of 360,000 active. S. pombe RE007 Vpr strain, BacTiter-Glo ATP luminescence, 24 h; control for the full effect not named in the record. AID 651644; active = well fitted falling curve with a large enough effect; inconclusive = small, poorly fitted or top-dose-only effect; inactive = no such curve, though single readings can be large or run the other way;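 also: % is scaled to controls: 0 for no effect and ±100 for the full control effect; nearly all actives have a fitted effect of over 50% in size; the assay follows cell death caused by Vpr and the record does not say whether a fall means rescue or toxicity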
#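 Fission yeast RE007 carrying one integrated HIV-1 vpr copy, seeded at OD 0.01 in PMG+AL medium with 23 nL pinned compound. Grown 24 h at 30 degrees; viability read by BacTiter-Glo luminescence after 5 min.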
# NS1 inh: blocks influenza NS1 protein function; Potency, µM (top dose mostly 46.1 µM), inactives show top-dose activity, positive = more growth; AID 2326; S. cerevisiae slowed by influenza A NS1, growth recovery by OD600; 0.4% of 270,000 active; also: actives are rising curves; nearly all actives have a fitted effect of over 50% in size
#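 Read-out: OD600 growth recovery of NS1-expressing budding yeast. Cells grown overnight at 30C in -URA glucose medium, washed, resuspended and diluted 1:100 in 2% galactose assay medium, pH 6.0. Same strain lacking NS1 served as positive control.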
# Cruzain Triton: cruzain (T. cruzi) inhibition with detergent. AID 1478. P25779. 0.43% of 200,000 active. Potency, µM, for the others: max response, negative = inhibition, usual class: inhibitors. purified cruzain, Z-FR-AMC fluorescence, 0.01% Triton; active = well fitted curve in the direction sought with a large enough effect; inconclusive = small, poorly fitted or top-dose-only effect, or another doubt; inactive = no such curve, though single readings can be large; an effect the other way counts as inactive or inconclusive;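 also: plate controls were neutral wells for no effect and buffer without enzyme for full effect; nearly all actives have a fitted effect of over 40% in size; top concentration of the series not given in the record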
#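 15 min RT preincubation of 1.5 nM cruzain with compound, then 2 uM Z-FR-AMC added; kinetic AMC fluorescence, 60 s delta. Triton X-100 0.01%, pH 5.5.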
# LASV entry inh: blocks Lassa virus binding to or entry into cells; Lassa virus pseudotype entry inhibition, cell reporter; control for the full effect not named in the record; Potency, µM (top dose mostly 37.9 µM), without a hit: at the highest dose activity change, negative = inhibition, hits mostly inhibitors; 1.2% of 300,000 active; AID 540256; active means well fitted inhibition curve with a large enough effect; inconclusive means small, poorly fitted or top-dose-only effect, or effect the other way; inactive means flat fitted curve, though single readings scatter; tested in HEK293 cells; also: % is scaled to controls: 0 for no effect and ±100 for the full control effect; nearly all actives have a fitted effect of over 50% in size; luciferase read-out
# Starred values were filed as active, the others as inactive; ? = inconclusive; / = not tested or not shown; [ ] = remark or other dose. Unless noted, calls follow the shape of the dose curve; as a rule, active means well fitted rising curve with a large enough effect; inconclusive means small, poorly fitted or top-dose-only effect; inactive means no such curve, though single readings can be large or run the other way. Potency is read from the fitted curve at half-maximal effect.
1: NC(=O)C1CCN(C(=O)C2(NC(=O)Nc3cccc(F)c3)CCCCC2)CC1
2: Clc1ccccc1Cn1nnc2c(N3CCOCC3)nc(C3CC3)nc21
3: Cc1cc(C)n(C(=O)COc2ccccc2C)n1
4: COc1ccc(C=O)cc1Cn1c(=O)n(CCC(=O)NCc2ccco2)c(=O)c2sccc21
5: CN1C(=O)[C@H]2[C@@H](/C=C/c3ccccc3)N3C(=O)CN(CC4CC4)C(=O)[C@@]3(C)[C@H]2C1=O
6: COc1cc(OC)c(NC(=O)Nc2nnc(N(C)C3CCCCC3)s2)cc1Cl
7: CCNc1nc(NC(N)=S)nc(NC(C)(C)C)n1
8: C/C(=N/NC(=O)c1cc(-c2ccc(Cl)s2)[nH]n1)c1ccco1

Compound,1,2,3,4,5,6,7,8
StopGo reporter,3%,?,-20%,1%,1%,-15%,-7%,17%
Marburg entry inh,-13%[46.1 µM],?,-2%,3%[46.1 µM],/,4%[46.1 µM],-2%[46.1 µM],12%[46.1 µM]
Cruzain noTriton,/,3%,5%,/,/,6%,/,/
SARS PLpro yeast,-1%,1%,16%,0%,-4%,/,1%,-5%
RE007 growth inh,12%,-5%,-4%,9%,10%,/,5%,24%
NS1 inh,10%,-4%,4%,5%,13%,/,5%,2%
Cruzain Triton,/,-4.1%,-0.6%,/,/,-3.6%,/,/
LASV entry inh,?,10%,12%,?,/,-3%[46.1 µM],-4%,8%

9: O=C(Nc1nnc(S(=O)(=O)N2CCN(c3ccc(F)cc3)CC2)s1)c1ccccc1
10: CCc1ccccc1-n1cnc2cc(C(=O)NC3CCCCCC3)ccc21
11: CCCn1nnc(NC(=O)c2cccnc2Cl)n1
12: Cc1ccccc1NC(=O)NCCCN1CCCC1=O
13: C=Cc1ccc(CN2C(=O)c3ccccc3Sc3ccc(C(=O)OCc4ccco4)cc32)cc1
14: CC(C)CNC(=S)NNC(=O)c1ccc(OC(F)F)cc1
15: O=C(NCCCN1CCOCC1)c1cccs1
16: CCc1ccc(NCc2nc(-c3ccccc3)no2)cc1

Compound,9,10,11,12,13,14,15,16
StopGo reporter,0%,9%,27%,-4%,-19%,13%,14%,30%
Marburg entry inh,/,/,5%,/,/,9%,22%,?
Cruzain noTriton,/,-1%,5%,/,13µM*,9%,-4%,-11%
SARS PLpro yeast,13%,/,27%,22%,/,6%,5%,-27%
RE007 growth inh,-6%,/,7%,1%,/,7%,0%,-13%
NS1 inh,2.2µM*,/,10%,4%,/,5%,4%,-49%
Cruzain Triton,/,-2.8%,-0.8%,/,-2.4%,2.3%,0.9%,-6.0%
LASV entry inh,/,-2%[46.1 µM],28%,/,-8%[46.1 µM],-3%,22%,-3%

17: Cc1cc(NS(=O)(=O)c2ccc(NC(=O)N[C@H](C(=O)O)C(C)C)cc2)no1
18: O=c1ccccn1CCOc1ccccc1Cl
19: COc1cccc2c(Cl)c(CC=C(Cl)Cl)c(C)nc12
20: C=CCn1nc2n(c1=O)-c1ccccc1SC2
21: COc1cccc(NC(=O)CCNS(=O)(=O)c2ccc3c(c2)CCCC(=O)N3)c1
22: CN(C)c1nc2c(c(N)nn2-c2ccc(Cl)cc2)c(=O)o1
23: O=S(=O)(Nc1c(O)ccc2ccccc12)c1cccc2ccccc12
24: COc1ccc2c(CCNC(N)=S)c[nH]c2c1

Compound,17,18,19,20,21,22,23,24
StopGo reporter,-13%,28%,?,22%,-9%,-5%,43%[activator],-8%
Marburg entry inh,?,5%,2%,/,/,-3%,?,/
Cruzain noTriton,/,-20%,/,/,-2%,19%,/,/
SARS PLpro yeast,1%,4%,-2%,0%,/,3%,/,-2%
RE007 growth inh,-2%,-20%,-14%,-10%,/,0%,-17%,-12%
NS1 inh,23%,10%,-6%,-3%,/,-6%,/,?
Cruzain Triton,/,-2.7%,/,/,0.7%,-2.0%,/,/
LASV entry inh,12%[46.1 µM],?,10%,/,10%[46.1 µM],-2%,?,/

25: Cc1ccc(NC(=O)Cn2cc(C=O)c3ccccc32)cc1
26: CCCN(c1ccc(C(=O)OC)cc1)S(=O)(=O)c1ccccc1
27: COc1cc(OC)cc(C(=O)NCC2CCCO2)c1 (stereo unspecified)
28: O=C(O)CCc1ccc(S(=O)(=O)NCCc2ccccc2)cc1
29: C=CCn1c(O)c(C(CC)=NCC2CCCO2)c(=O)[nH]c1=O (stereo unspecified)
30: Cc1ccc(C(=O)Nc2ccccc2N2CCCCC2)cc1S(=O)(=O)N1CCOCC1
31: Cc1nnc(SCC(=O)N(C)Cc2ccccc2)[nH]c1=O
32: CCOC(=O)c1nnn(CC(=O)N2N=C(c3ccccc3)CC2c2ccccc2)c1C(=O)OCC (stereo unspecified)

Compound,25,26,27,28,29,30,31,32
StopGo reporter,?,-11%,/,41%[activator],-11%,-25%,14%,1%
Marburg entry inh,/,17%[46.1 µM],-9%,9%,5%,?,11%,-5%
Cruzain noTriton,/,/,5%,-13%,/,/,-1%,?
SARS PLpro yeast,3%,-9%,1%,4%,-1%,/,4%,26%
RE007 growth inh,-3%,6%,-8%,-9%,12%,6%,0%,6%
NS1 inh,18%,/,2%,7%,-1%,/,5%,-1%
Cruzain Triton,/,/,5.3%,1.7%,/,/,-2.7%,-8.3%
LASV entry inh,/,14%,-1%,1%,-22%,-24%,-1%,-19%

33: CS(=O)(=O)N(CC(=O)Nc1ccccc1C(=O)NCCc1ccccc1)c1ccc2c(c1)OCCO2
34: O=C(CCSc1ccc(Cl)c(Cl)c1)NC12CC3CC(CC(C3)C1)C2
35: C=CCNC(=O)CC(=O)N/N=C/c1cccc(C)c1
36: COc1ccc(C2C(C(=O)OC3CCCCC3)=C(C)Nc3nnnn32)c(OC)c1OC (stereo unspecified)
37: Cc1cc(C)cc(NC(=O)c2ccc(CSc3nnnn3C)cc2)c1
38: Cc1nnc(-c2cnn(-c3ccccc3)c2N)n1Cc1ccc(F)cc1
39: Cn1nnnc1SCc1nc2ccccc2s1
40: CCOc1ccc(S(=O)(=O)Nc2ccccc2SC)cc1

Compound,33,34,35,36,37,38,39,40
StopGo reporter,39%[activator],5%,1%,-22%,13%,8%,27%,-16%
Marburg entry inh,-3%,?,0%,?,?,-5%,?,-20%
Cruzain noTriton,3%,6%,-9%,?,9%,8%,7%,-2%
SARS PLpro yeast,-1%,-21%,-18%,6%,-8%,-5%,0%,-7%
RE007 growth inh,-4%,-3%,14%,18%,10%,3%,2%,-5%
NS1 inh,4%,-26%,6%,-17%,-3%,-7%,-4%,-6%
Cruzain Triton,-2.2%,-2.9%,-2.1%,-9.5%,0.9%,6.6%,14%,-0.7%
LASV entry inh,-3%,-2%,16%,?,?,-22%,?,-23%

41: COc1cc(NC(=O)CC2C(=O)N(c3ccccc3)C(=O)N2Cc2ccc(F)cc2)cc(OC)c1 (stereo unspecified)
42: COc1ccc(CN2CCN(Cc3ccc(C(F)(F)F)cc3)CC2)cc1
43: O=C(CC1S/C(=N/N=C/c2ccco2)NC1=O)Nc1cccc(Cl)c1Cl (stereo unspecified)
44: CCS(=O)(=O)Nc1cccc(C2=NN(S(C)(=O)=O)C(c3cccs3)C2)c1 (stereo unspecified)
45: Cc1ccc(NC(=O)C2C(c3ccccc3)C=CC(c3ccccc3)C2C(=O)O)cc1 (stereo unspecified)
46: CC1CCCCC1NC(=O)CSC1=Nc2ccccc2C2CC=NN12 (stereo unspecified)
47: Cc1cc(N2CCN(C)CC2)nc2ccc(NC(=O)Nc3ccccc3)cc12
48: Cc1ccc(CSc2nsc(C)c2C#N)cc1

Compound,41,42,43,44,45,46,47,48
StopGo reporter,-17%,?,-5%,-1%,-2%,?,42%[activator],22%
Marburg entry inh,/,/,2%[46.1 µM],/,?,?,/,/
Cruzain noTriton,-7%,/,/,/,-20%,/,-8%,/
SARS PLpro yeast,/,-6%,1%,4%,0%,2%,/,-6%
RE007 growth inh,/,-7%,5%,2%,2%,-12%,/,-9%
NS1 inh,/,-7%,/,13%,?,/,/,-2%
Cruzain Triton,-2.0%,/,/,/,-3.5%,/,-3.5%,/
LASV entry inh,-14%[46.1 µM],/,14%,/,-4%,-16%,1%[46.1 µM],/

# By substructure: the compounds so far containing an NH in an aromatic ring (4)
8: C/C(=N/NC(=O)c1cc(-c2ccc(Cl)s2)[nH]n1)c1ccco1
24: COc1ccc2c(CCNC(N)=S)c[nH]c2c1
29: C=CCn1c(O)c(C(CC)=NCC2CCCO2)c(=O)[nH]c1=O (stereo unspecified)
31: Cc1nnc(SCC(=O)N(C)Cc2ccccc2)[nH]c1=O

Compound,8,24,29,31
StopGo reporter,17%,-8%,-11%,14%
Marburg entry inh,12%[46.1 µM],/,5%,11%
Cruzain noTriton,/,/,/,-1%
SARS PLpro yeast,-5%,-2%,-1%,4%
RE007 growth inh,24%,-12%,12%,0%
NS1 inh,2%,?,-1%,5%
Cruzain Triton,/,/,/,-2.7%
LASV entry inh,8%,/,-22%,-1%

# The results go on:
49: Cc1ccc2c(=O)cc(C(=O)Nc3cccc(Cl)c3C)oc2c1C
50: COc1cc(NC(=O)c2cc(C)nc3c2c(C)nn3-c2ccccc2Cl)cc(OC)c1
51: COc1ccc(C)cc1-n1c(-c2ccncc2)n[nH]c1=S
52: CC(C)(C)n1nnnc1C(c1ccncc1)N1CCCCCC1 (stereo unspecified)
53: COc1ccc(CCn2c(=O)[nH]c3cc(C(=O)N4CCN(c5ccccc5)CC4)ccc3c2=O)cc1OC

Compound,49,50,51,52,53
StopGo reporter,-25%,?,4%,/,16µM*
Marburg entry inh,24%[46.1 µM],?,0%,-25%,?
Cruzain noTriton,4%,?,-8%,12%,5%
SARS PLpro yeast,/,/,-1%,-3%,1%
RE007 growth inh,/,/,10%,-6%,1%
NS1 inh,/,/,4%,-10%,/
Cruzain Triton,-0.4%,-4.5%,5.7%,1.9%,2.8%
LASV entry inh,0%[46.1 µM],-10%[46.1 µM],2%,-5%,-11%

# Assay outcomes from PubChem.
